High-throughput results deposited in PubChem by ICCB-Longwood Screening Facility, Harvard Medical School.
CapD inh: inhibitors of Bacillus anthracis CapD enzyme | purified CapD enzyme, fluorescence intensity read-out; hits give low values; some hits fall short of the stated cut | z-score (test concentration not listed) | hit rate 0.23% among 140,000 | AID 492967;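 active = z-score under -4 in either of two replicates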;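 also: stock transfer was 100 nL into about 40 µL; score is relative to mean and spread of the plate; one replicate is shown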
AID504770: E. coli YBA685 growth inhibition, screen for V. cholerae RctB inhibitors; E. coli YBA685 rctB-dependent plasmid, OD600 growth, 3 h; hits give low values; z-score (concentration not given with the values); hit rate 0.27% among 130,000;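 active = z-score under -2 on both plates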;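 also: wells of about 30 µL received 100 nL stock; score is relative to mean and SD of the test wells; the first replicate is given; strong numbers were not always called active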
The depositor's hits bear a star; · = no result given; & = joins results of further samples. Only part of the results is shown (hit frequency here may not be typical).

SMILES	CapD inh	AID504770
O=C(O)C1C2C=CC(O2)C1C(=O)Nc1ccc(S(=O)(=O)N2CCc3ccccc32)cc1 (centres undefined)	0.06	0.55
COC(=O)Cn1c2c(c3cc(C)ccc31)CCCC2	51	-1.4
Oc1cccc2c1Cc1ccccc1-2	-0.86	1.7
Cc1cc(C2CCCCC2)ccc1O	-0.61	-0.75
NS(=O)(=O)c1ccc(-n2cccc2)cc1	0.36	1.8
O=C(Cn1cnc2c(cnn2CCO)c1=O)c1ccc(Cl)cc1	·	0.05
CN1c2ccccc2C(C)(C)C12C=Nc1c(ccc3ccccc13)O2 (centres undefined)	0.32	·
CCS(=O)(=O)c1ccc(O)c(NC(=O)Nc2ccccc2)c1	·	-0.7
Fc1ccc(-c2nnc(CSCc3cccc4ccccc34)o2)cc1	-0.41	-0.2
Oc1oc(-c2ccc(Br)cc2)nc1C=Nc1ccc(I)cc1	-0.35	·
O=C(N/N=C/c1ccccn1)NC12CC3CC(CC(C3)C1)C2	0.43	-0.5
COc1ccc(S(=O)(=O)c2c(SC)nn(C)c2N)cc1	-0.29	0.75
CC(C)(O)C1Cc2cc3ccc(=O)oc3cc2O1 (centres undefined)	·	-0.6
COc1ccc(OCCOC(=O)c2cccs2)cc1	·	-0.95
COC(=O)c1sccc1NC(=O)c1cc(C)on1	0.39	-0.3
N#CC1(C#N)[C@H](c2ccc(Br)cc2)[C@@H](C(=O)c2ccccc2)N2c3ccc(Cl)cc3C=C[C@@H]21	0.42	·
CCCC(=O)Nc1cccc(Oc2nc(C)c(Cl)c(C)c2C#N)c1	-0.36	·
NC(=O)C1CCN(C(=O)COc2ccc(Cl)cc2Cl)CC1	·	0
NC(=O)c1ccccc1SCc1ccccc1	-0.93	1.8
COc1ccc(OC)c(C(=O)COC(=O)c2ccco2)c1	·	-0.5

Three compounds picked at random from the list so far:
SMILES	CapD inh	AID504770
COC(=O)c1sccc1NC(=O)c1cc(C)on1	0.39	-0.3
COc1ccc(S(=O)(=O)c2c(SC)nn(C)c2N)cc1	-0.29	0.75
CC(C)(O)C1Cc2cc3ccc(=O)oc3cc2O1 (centres undefined)	·	-0.6

(continued)
SMILES	CapD inh	AID504770
COC(=O)C1=C(NC(=O)c2cccc(C)c2)CCS1	0.2	0.8
COc1ccc(CNc2nc(-c3cccnc3)nn2S(C)(=O)=O)cc1	-0.31	0.7
CCOC(=O)C1=C(CNc2cccnc2)NC(=O)NC1c1ccccc1 (centres undefined)	8.8	0.65
O=C1CC(NC2CCN(C(=O)c3cccc(F)c3)CC2)C(=O)N1 (centres undefined)	·	1
COC(=O)c1cc(C(=O)Cc2ccccc2)c[nH]1	0.3	0
COc1ccc(NC(=O)NCc2noc3ccc(C)cc23)c(OC)c1	0.84	-0.1
COc1ccccc1OCC(=O)NCC1CCCCC1	·	1.6
O=C(CCC(=O)c1ccc2c(c1)OCCO2)OCc1ncc(-c2ccccc2)o1	·	0
CCOC(=O)c1c(NC(=O)CN2C(=O)S/C(=C/c3ccc(F)cc3)C2=O)sc2c1CCCC2	1.2	-0.35
Cc1nnc(NC(C)C)s1	0.25	-0.9
COc1c(F)c(F)c(OC)c(F)c1F	0.14	0.85
Clc1ccc(SCc2csc(-c3ccno3)n2)cc1	-0.7	-0.7
Cc1ccc(NNC(=S)NC(C)C)c(C)c1	·	0.25
CC(C)N(C(C)C)S(=O)(=O)c1ccc(N2CCc3ccccc3C2)nc1	·	0
Cn1c(SCCN2CCCC2)nnc1C1CCN(C(=O)Cc2cccc(Cl)c2)CC1	·	-0.55
CC1(C)Cc2c(c(N3CCOCC3)nc3sc4c(N5CCCCC5)ncnc4c23)CO1	0.2	·
COc1cccc(/C=N/n2cnc3sc4c(c3c2=O)CCCC4)c1	0.65	1.6
Cc1ccc(N2C(=O)C(N3C(=O)c4ccccc4C3=O)C2c2ccc(F)cc2)cc1 (centres undefined)	0.4	·
Cc1nc(N(C)CC(=O)N2CCOCC2)c2c(-c3ccccc3)csc2n1	·	-0.8
CCN(CC)CCNC(=O)c1sc2ncnc(N3CCN(c4ccccc4)CC3)c2c1C	0.2	·
O=C(O)CC(Cc1ccc(Cl)cc1)C(=O)Nc1ccccc1 (centres undefined)	0.53	0
CCC1Sc2ccc(S(=O)(=O)CCC(=O)N3CCOCC3)cc2NC1=O (centres undefined)	-0.7	-0.75
Cc1ccc(C(=O)N2CCN(C/C=C/c3ccccc3)CC2)c(Cl)n1	0.39	·
Oc1c(C(Nc2cccc(Cl)c2)c2cccnc2)ccc2cccnc12 (centres undefined)	-0.12	1.9
COc1ccccc1S(=O)(=O)Nc1ccc2nc(SC)sc2c1	·	-0.75
CCOC(=O)c1c(-c2ccccc2)oc2ccc(OCC(N)=O)cc12	47	0.05
COc1ccc(Br)cc1CNC(=O)c1cc2c(=O)[nH]c3ccccc3c2n1C	69	-0.4
COc1cc2c(cc1OC)C(C)N(Cc1cc(C)c(O)c(C)c1)CC2 (centres undefined)	0.53	·
O=C(CC1(O)C(=O)Nc2ccc(Br)cc21)c1ccc(F)cc1 (centres undefined)	0.25&-0.2	·
O=C(CC(NCc1ccccc1)C(=O)O)Nc1cccnc1 (centres undefined)	·	1.9
Cc1onc(-c2ccccc2)c1C(=O)OCC(=O)N(C)Cc1cccs1	·	-0.35
COc1ccc(NC(=O)Cn2c(-c3cscn3)nc3ccccc32)cc1	1.4	-1.5
Cc1ccsc1CCN1CSC2=C(C#N)C(c3ccc(Cl)cc3)CC(=O)N2C1 (centres undefined)	-2.7	1.8
C=CCNC(=O)/C=C/c1cccs1	·	0.1
N#Cc1nccnc1N1CCN(Cc2ccccc2)CC1	0.99	-0.05
O=S(=O)(Nc1ccccn1)c1ccc2c(c1)OCCO2	1	-0.7
CSc1ccc(C(=O)CCC(=O)O)cc1	·	-0.65
COC(=O)/C=C(/c1ccccc1)n1cnc2ccccc21	-0.79	·
Cc1nnc(Nc2ccc(C(=O)NCCO)cc2)c2ccccc12	-2	·
O=C(COc1ccccc1)N1CCN(C(=O)c2ccccc2)CC1	0.05	0.2
O=C1NC(=O)C2C1ON(c1ccc(Cl)cc1)C2c1ccccc1 (centres undefined)	·	-1.2
Cc1c(Br)sc2sc(-c3ccn(C)n3)c(C)c12	0.53	-0.3
CC1(c2ccc(C#N)cc2)NC(=O)N(CC(=O)C23CC4CC(CC(C4)C2)C3)C1=O (centres undefined)	·	-0.05
COc1ccc(NC(C)=O)cc1NC(C)C(=O)NCC1CCCCC1 (centres undefined)	·	-0.7
CCOC(=O)N1CCC(NC(=O)c2cc3nc(-c4ccc(OC)cc4)cc(C(F)(F)F)n3n2)CC1	-0.53	·
Cc1cc(Cl)ccc1OCC(=O)N=Nc1c(O)[nH]c(=O)[nH]c1=O	·	-0.95
CCCC(CCC)C(=O)Nc1cc(-c2cn3cccnc3n2)ccc1C	0.22	-0.1
CC(NC(=O)CCc1nc2ccccc2s1)C1CC2CCC1C2 (centres undefined)	0.32	1.6
Cc1ccccc1C(=O)NC(NCc1ccco1)(C(F)(F)F)C(F)(F)F	-0.03	-1.1
CCC(=O)N1C(C(=O)N2CCCC2)CSC1c1ccc(OC)cc1 (centres undefined)	-0.68	-0.65
More entries:
SMILES	CapD inh	AID504770
Cc1cc(C)n(C(=O)CCC(=O)O)n1	0.21	-0.6
Cc1c(C(=O)NCc2cccc(Cl)c2)oc2ccc3c(c12)C(=O)CC(C)(C)O3	0.32	-0.05
COC(=O)c1[nH]c2ccccc2c1I	-0.57	-0.55
COc1ccc2oc(=O)c(S(=O)(=O)c3ccccc3)cc2c1	·	0.4
O=S(=O)(c1ccc(NCc2ccc3c(c2)OCO3)nc1)N1CCCC1	·	2.4
Cc1ccc(CN(C)CC(=O)NCCc2ccc(S(N)(=O)=O)cc2)cc1	·	-0.2
CCCCCC(=O)Nc1ccc(N2CCN(c3ccc(C(F)(F)F)cn3)CC2)nc1	1.8	-0.5
O=C(OC1CCCCC1=O)c1cc2ccccc2[nH]1 (centres undefined)	·	-1.2
CC1=NN(c2nc(-c3cccc([N+](=O)[O-])c3)cs2)C(=O)/C1=C\c1ccc(N(C)C)cc1	-0.2	·
CS(=O)(=O)N1N=C(c2ccc(Br)cc2)CC1c1nc2ccccc2[nH]1 (centres undefined)	·	0.8
COC(Cn1c(SCC(=O)c2cccc(C(F)(F)F)c2)nnc1-c1ccc(Cl)cc1)OC	9.9	-1.1
CCCN(CCC)c1nc(NC(C)(C)C)nc(N2CCOCC2)n1	-0.14	·
Cc1cc(C)n2nc(C(=O)N3CCCSC3=Nc3ccccc3)nc2n1	·	-0.25
CCC(C(=O)OC)n1cnc2c(nnn2Cc2ccc(Cl)cc2)c1=O (centres undefined)	0.24	-1.3
COc1ccc(CCn2c(NN)nc3ccsc3c2=O)cc1OC	-0.21	0.05
N#CC1=C(NC(=O)Cc2ccccc2)c2ccccc2CC12CCCCC2	-0.29	·
COc1ccc(OCC(=O)c2c(O)c3ccccc3oc2=O)cc1	0.3	0
O=C(O)CC(NC(=O)C(c1ccccc1)c1ccccc1)c1ccc(F)cc1 (centres undefined)	-0.12	0.1
COc1ccc(-c2cc(C(F)(F)F)n3nc(C(=O)Nc4ccc(C(C)=O)cc4)cc3n2)cc1	0.06	·
CCOC(=O)c1c(Nc2nc(C)cs2)sc2c1CCCC2	·	-0.05

Reformatted field by field: part of the list above
> COc1ccc(OCC(=O)c2c(O)c3ccccc3oc2=O)cc1
  CapD inh = 0.3	AID504770 = 0

> O=C(O)CC(NC(=O)C(c1ccccc1)c1ccccc1)c1ccc(F)cc1 (centres undefined)
  CapD inh = -0.12	AID504770 = 0.1

Next section
SMILES	CapD inh	AID504770
Nc1ccc(CNc2ncn[nH]2)cc1	·	0.45
CC1=CCC2C(=O)N(c3ccc(O)cc3)C(=O)C2C1 (centres undefined)	0.2	-0.05
CC(C)c1ccc(S(=O)(=O)Nc2ccc3oc4c(c3c2)C(=O)CCC4)cc1	-0.26	·
CCOC(=O)N1CCc2c(sc3c2c(=O)n(Cc2ccccc2)c(=O)n3CC(=O)Nc2cccc(OC)c2)C1	-0.46	0.85
O=C(Cn1cc2c(n1)CCCC2)Nc1ccc(Cl)cc1	-0.65	0.05
N#Cc1cnn2c(C(F)(F)F)cc(C(F)(F)F)nc12	0.01	·
C1CN(c2nc3nonc3nc2N2CCOCC2)CCO1	-0.8	-0.45
Cc1cccc(C)c1OC(=O)CN(c1ccc(Cl)cc1)S(C)(=O)=O	-0.6	·
COCCn1c(SCC(=O)c2ccccc2)nnc1-c1ccccc1	0.73	-0.35
CCc1c(C)c(C#N)c2nc3ccccc3n2c1N1CCN(Cc2ccccc2)CC1	-0.14	·

As entered above:
For CapD inh, COc1ccc(NC(=O)Cn2c(-c3cscn3)nc3ccccc32)cc1 reads 1.4
For CapD inh, N#Cc1cnn2c(C(F)(F)F)cc(C(F)(F)F)nc12 reads 0.01
For CapD inh, Cc1ccccc1C(=O)NC(NCc1ccco1)(C(F)(F)F)C(F)(F)F reads -0.03
For AID504770, Cc1nnc(NC(C)C)s1 reads -0.9

Next records follow:
SMILES	CapD inh	AID504770
CN1CCN(C(=O)c2ccc(=O)n(Cc3ccc(Cl)c(Cl)c3)c2)CC1	-0.15	·
Cc1cccc2cc(CN(Cc3ccco3)C(=O)N3CCOCC3)c(Cl)nc12	·	-0.3
Cn1cc(CCC(=O)O)c2ccccc21	·	-0.35
Cc1ccc(NS(=O)(=O)c2cccc(C(=O)NC(C)(C)C)c2)c(C)c1	-0.66	-0.85
O=C(CS(=O)(=O)c1ccccc1)NCc1ccccc1	-0.12	-0.6
CN(C(=O)NC(=O)Nc1ccc(C=C(C#N)C#N)cc1)S(C)(=O)=O	·	-0.45
COc1ccc(NS(=O)(=O)c2ccc(NC(=O)c3ccc(Br)o3)cc2)cc1	-0.09	1.5
Cc1cc(SCC(=O)c2cc(C)n(C)c2C)n2c(nc3ccccc32)c1C#N	·	-0.45
O=c1c2ccccc2c(/C=N/c2ccccn2)c(O)n1-c1ccccc1	-0.02	-0.45&-0.2
c1ccc(Cn2cc3c(-c4ccccc4)nnc-3c3ccccc32)cc1	-0.24	0.35
COC(=O)c1cc(COC(=O)COc2ccc(C)c(C)c2)oc1C	·	0
Cn1nccc1C(=O)OCC(=O)c1ccccc1	·	1.2
O=C(/C=C/c1cccs1)Nc1ccc(-c2nc3ccccc3o2)cc1	2.8	-0.85
CC(C)(C)NC(=O)NC(=O)CN1CCC(Cc2ccccc2)CC1	·	-0.2
COc1ccc(C(C(=O)NC2CCCC2)N(Cc2ccco2)C(=O)c2ccco2)cc1 (centres undefined)	·	1.1
Nc1c(-c2nnnn2-c2ccccc2)cnc2ccccc12	25	1.9
CCOC(=O)C1=C(C)N=c2s/c(=C\c3cc(Br)c(O)c(OC)c3)c(=O)n2C1c1ccccc1 (centres undefined)	-0.065	·
CC(=O)N(CC(O)CN(C(C)=O)c1c(I)c(C(=O)NCC(O)CO)c(I)c(C(=O)NCC(O)CO)c1I)c1c(I)c(C(=O)NCC(O)CO)c(I)c(C(=O)NCC(O)CO)c1I (centres undefined)	-1	·
CCCS(=O)(=O)c1c(S(=O)(=O)CCC)c2ccccn2c1C(=O)N/N=C/c1cccc([N+](=O)[O-])c1	36	·
O=C1c2ccc(F)cc2C(=O)N1CCO	-0.23	-0.2

Some of these compounds in order of SMILES length, smallest number first:
SMILES	CapD inh	AID504770
Nc1c(-c2nnnn2-c2ccccc2)cnc2ccccc12	25	1.9
COC(=O)c1cc(COC(=O)COc2ccc(C)c(C)c2)oc1C	·	0
O=C(/C=C/c1cccs1)Nc1ccc(-c2nc3ccccc3o2)cc1	2.8	-0.85
CC(=O)N(CC(O)CN(C(C)=O)c1c(I)c(C(=O)NCC(O)CO)c(I)c(C(=O)NCC(O)CO)c1I)c1c(I)c(C(=O)NCC(O)CO)c(I)c(C(=O)NCC(O)CO)c1I (centres undefined)	-1	·
